Assay outcomes (PubChem BioAssay)
Lassa entry = blocks Lassa virus binding or cell entry | Lassa virus pseudotyped entry inhibition, cell-based qHTS; control for the full effect not named in the record; many of its hits are not listed in these tables | Potency, µM (titrated, usually from 49.2 µM), without a hit: at the top dose activity change, negative = inhibition, usual class: inhibitors | 18,000 tested, 4.1% active | AID 720533; active = well fitted inhibition curve with a large enough effect; inconclusive = small, poorly fitted or top-dose-only effect; inactive = no such curve, though single readings can be large or run the other way; tested in HEK293 cells; further: luciferase read-out
Marburg entry = Marburg virus entry inhibition. Potency, µM (top dose mostly 49.2 µM), inactives show top-dose activity change, negative = inhibition, most hits filed as inhibitors. 18,000 tested, 6.5% active. AID 720532. Marburg virus pseudotype entry/binding inhibition, cell-based; control for the full effect not named in the record; many of its hits are not listed in these tables; active means well fitted inhibition curve with a large enough effect; inconclusive means small, poorly fitted or top-dose-only effect; inactive means no such curve, though single readings can be large or run the other way; tested in HEK293 cells; further: luciferase read-out
Numbers without * were called inactive; u = inconclusive; x = not tested or not shown; & = joins results of further samples; [ ] = dose if it differs, or a comment. On the % scale 0 is the no-effect control and ±100 the full control effect; potency means the concentration at half of the fitted maximal effect.

canonical_smiles | Lassa entry | Marburg entry
Cc1ccc(CN2C[C@H](Sc3ccccn3)C[C@H]2C(=O)Nc2ccc3sc(C)nc3c2)c(C)c1 | -11.6% | -11.6%
CC1=C[C@@H]2c3cccc4[nH]cc(c34)C[C@H]2N(C)C1 | -14.4% | 6.9%
COc1ccc(C2CC(=O)Oc3c(C(C)C)ccc(C)c32)cc1 (stereo unspecified) | -20.3% | -11.0%
CC(C)Cn1cnc2c(N)nc3ccccc3c21 | 27.0% | 35.6%
O=S1(=O)c2cccc(Cl)c2OC[C@H](c2ccccc2)N1Cc1cccc(F)c1 | x | -49.5%
COc1ccc(CNC(=O)c2ccc(-c3cc(-c4nnc(C)o4)ccc3C)cc2)cc1 | x | -33.7%
c1coc(-c2ccccc2CN2CCOc3ccc(CN4CCOCC4)cc3C2)c1 | 5.8% | -17.2%
COCCOC(=O)C1=C(C)NC(C)=C(C(=O)OC/C=C/c2ccccc2)C1c1cccc([N+](=O)[O-])c1 (stereo unspecified) | 12.6µM* | 6.31µM*
CCCCN1C[C@H](c2ccccc2)[C@@H](CC(=O)NC)C1=O | x | 2.7%
CC(C)C[C@@H]1COc2cccc(N3CCCCC3)c2S(=O)(=O)N1 | 19.3% | 27.2%
COc1ccc([C@]23Cc4ccccc4[C@H](O2)c2c(cc(-c4ccccc4)oc2=O)O3)cc1 | 2.6%[8.59 µM] | 38.2%[activator][8.59 µM]
CC(=O)O[C@H]1C(=O)[C@@]2(C)C([C@H](OC(=O)c3ccccc3)[C@]3(O)C[C@H](OC(=O)[C@H](O)[C@@H](NC(=O)c4ccccc4)c4ccccc4)C(C)=C1C3(C)C)[C@]1(OC(C)=O)CO[C@@H]1C[C@@H]2O (stereo partly specified) | -22.9% | u
CC(C)C[C@H](NC(=O)[C@H](Cc1ccccc1)NC(=O)[C@@H]1CCCN1C(=O)[C@H](CC(=O)O)NC(=O)[C@@H]1CCC(=O)N1)C(=O)N[C@@H](CCCN=C(N)N)C(=O)N[C@@H](Cc1ccccc1)C(N)=O | -3.4% | 4.3%
Cc1ccccc1-c1cc(-n2ccnc2)ncn1 | -0.4% | 5.5%
CCC(C)C(=O)OC1C2CC3=C4CC(=O)OC(c5ccoc5)[C@]4(C)CCC3[C@@](C)(C2=O)C(CC(=O)OC)C1(C)C (stereo partly specified) | -1.2% | u
Cc1cnc(CNc2ccnc(-c3ccccc3Cl)n2)cn1 | -15.9% | 4.8%
CC1CN1c1cc2c(c3c1ccn3C)C1CCC2C1 (stereo unspecified) | x | u
NCCc1c[nH]c2ccc(C(N)=O)cc12 | -10.0%&2.7% | 8.4%&8.8%
COc1cc2ncnc(Nc3ccc(C)c(O)c3)c2cc1OC | x | u
Fc1cccc(COc2ccc(Nc3ncnc4cc(-c5ccc[nH]5)sc34)cc2Cl)c1 | x | u

The final 4 entries of the part above are carried over, then new ones follow:
canonical_smiles | Lassa entry | Marburg entry
CC1CN1c1cc2c(c3c1ccn3C)C1CCC2C1 (stereo unspecified) | x | u
NCCc1c[nH]c2ccc(C(N)=O)cc12 | -10.0%&2.7% | 8.4%&8.8%
COc1cc2ncnc(Nc3ccc(C)c(O)c3)c2cc1OC | x | u
Fc1cccc(COc2ccc(Nc3ncnc4cc(-c5ccc[nH]5)sc34)cc2Cl)c1 | x | u
c1ccc(Cc2nc3ccc(Nc4ncnc5ccccc45)cc3[nH]2)cc1 | 148.8%[activator] | 123.2%[activator]
COc1ccc(C2CC(=O)Oc3cc(C)c(Cl)cc32)cc1 (stereo unspecified) | -16.7% | -1.5%
CCN(CC)CCCN1C(=O)C2=C(C1=O)C1N(C)c3ccccc3[C@@]13C[C@@H](CO)N(C(=O)CCC(=O)OC)C3=N2 (stereo partly specified) | 41.3%[activator][8.59 µM] | 7.1%[8.59 µM]
CC[C@H](O)C(C[C@H](C)N(C)C)(c1ccccc1)c1ccccc1 | u | 17.8µM*
COC(=O)C1=C(C(=O)OC)[C@@H]2N(Cc3ccccc3)c3ccccc3[C@@]23C[C@@H](CO)N(C(=O)CC(C)C)C3=N1 | -0.6%[8.59 µM] | -37.7%[8.59 µM]
O=C(NCCCCN1CCN(c2cccc(Cl)c2Cl)CC1)c1ccc2c(c1)Cc1ccccc1-2 | 3.3% | -1.1%
CN(C)[C@@H]1C(=O)C(C(N)=O)=C(O)[C@@]2(O)C(=O)C3=C(O)c4c(O)cccc4[C@@](C)(O)C3CC12 (stereo partly specified) | -1.9% | -22.0%
COc1cc2c3cc1Oc1cc(ccc1O)C[C@@H]1c4c(cc(OC)c(O)c4Oc4cccc(c4)C[C@H]3N(C)CC2)CC[N+]1(C)C | -2.0%[17.8 µM] | -19.1%[17.8 µM]
O=[N+]([O-])c1nccn1CO[C@@H](CO)[C@H](O)CO | 9.2% | 11.3%
CC1(OC(=O)CCc2ccccc2)C(=O)C=C2C=C(c3ccc(C#N)cc3)N(Cc3ccccc3)C=C2C1=O (stereo unspecified) | 10.3%[8.59 µM] | u
Cc1ncc2c(c1CNS(=O)(=O)N(C)C)CCN(C(=O)c1ccc(-c3ccc(F)cc3)cc1)C2 | u | u
Cc1cc(C)c2c(CN(Cc3ccccc3)Cc3ccccc3)cc(=O)oc2c1 | x | u
CC(C)C[C@H]1COc2c(Cl)cccc2S(=O)(=O)N1C | x | 12.2%
COc1cc(CN2CCCC(n3cc(C(=O)N4CCCCC4)nn3)C2)cc(OC)c1OC (stereo unspecified) | -14.7% | u
Cc1cnc(SCc2ccccn2)nc1C1CCCN(Cc2ccsc2)C1 (stereo unspecified) | -19.8% | -28.6%
COc1cc(NC(=O)O[C@@H]2C(=O)c3cc(Br)ccc3O[C@H]2c2ccc3c(c2)OCO3)cc(OC)c1OC | 5.1% | 11.8%
CC(=O)[C@H]1CC[C@H]2[C@@H]3CC[C@@H]4C[C@H](O)CC[C@]4(C)[C@H]3CC[C@]12C | -3.1% | 0.0%
CCN1C(=NCc2ccco2)N[C@@H](c2ccccc2)[C@H](C(=O)OC)[C@H]1C | -21.7%[8.59 µM] | 12.8%[8.59 µM]
CC(C)(Oc1ccc(C2CCCc3ccccc32)cc1)C(=O)O (stereo unspecified) | 1.8% | 1.6%
CCC[C@H]1CN(c2ccccc2)C(=O)[C@H]1CC(=O)NC | 25.7% | 46.9%

canonical_smiles | Lassa entry | Marburg entry
N#Cc1cccc(CS(=O)(=O)c2nc3ccccc3s2)c1 | 1.0% | -10.7%
Cc1ccc(CN2CC(N3CCCCC3)CS2(=O)=O)cc1 (stereo unspecified) | -5.7% | 3.6%
Cc1cccc(-c2cccc(-c3cc(=O)oc4cc5c(cc34)OCO5)c2)c1 | -10.6% | u
COc1ccc2c(C(=O)c3ccc(Cl)cc3)c(C)n(CC(=O)O)c2c1 | -17.9% | -2.0%
Cc1cc(N)c2ccccc2[n+]1CCCCCCCCCC[n+]1c(C)cc(N)c2ccccc21 | 28.2µM* | u
C=C(C)C(=O)CP(=O)(OCC)OCC | -4.9% | -3.7%
CN1C2CCC1CC(OC(c1ccccc1)c1ccccc1N)C2 (stereo unspecified) | -8.2%&-9.9% | 17.8µM*
CCCCC/C=C\C\C=C/C=C/C=C/[C@@H](SC[C@H](N)C(=O)NCC(=O)O)[C@@H](O)CCCC(=O)O | 1.7% | 5.1%
CCOP(=S)(OCC)Oc1nc(Cl)c(Cl)cc1Cl | -15.8% | -8.4%
CCCCC1=CC2=C(c3ccco3)C(=O)C(C)(OC(=O)c3ccc(OC)cc3)C(=O)C2=CO1 (stereo unspecified) | -6.8% | 0.8%
Cc1ccc([C@H]2C[C@@H](O)[C@H](n3cc(-c4ccc(F)cc4)nn3)CN2C(=O)C2CCCCC2)cc1 | -21.5% | u
O=C1NC(=O)C(Cc2ccc(OCCN3COc4ccccc4C3=O)cc2)S1 (stereo unspecified) | 0.0% | 29.8%
COCC1=C2c3ccccc3[C@H](C[N+](=O)[O-])C(C(=O)OC)(C(=O)OC)CC2C2C(=O)N(c3ccccc3)C(=O)C2C1 (stereo partly specified) | 4.2%&4.6% | 1.2%&-12.6%
CC1=C(C(=O)Nc2ccc3[nH]ncc3c2)C(c2ccc(F)cc2)N=C(c2ccc(C(F)(F)F)nc2)N1 (stereo unspecified) | x | u
C[C@@H]1C(=O)O[C@H]2[C@@H](O)[C@@]34[C@H]5CC(C(C)(C)C)[C@]36[C@@H](OC(=O)[C@@H]6O)O[C@@]4(C(=O)O5)[C@@]12O (stereo partly specified) | -10.4% | -5.8%
CC1(C)CN(c2ccccc2)C(=O)[C@@H]1CC(=O)Nc1ccccc1 | 9.4% | -25.7%
CCCCCCCCCCCCCCCC(=O)OCC(COC(=O)CCCCCCCCCCCCCCC)OC(=O)CCCCCCCCCCCCCCC | -5.7% | 17.9%
CCn1c(-c2ccccc2F)nc2cc(NC(C)=O)cc(C(=O)N3CCCCC3c3nccn3C)c21 (stereo unspecified) | -18.3% | -4.4%
CN(C)C1CCN(CCCOc2ccc(-c3ccc(C#N)cc3)cc2)C1 (stereo unspecified) | u | 11.2µM*
O=C(Nc1ccc(C(=O)N2CCCC2)cc1)C1CCCC1 | -14.4% | 26.6%

Results follow in this order: Lassa entry, Marburg entry
O=c1ccn([C@@H]2O[C@H](COP(=O)(O)OP(=O)(O)O)[C@@H](O)[C@H]2O)c(=O)[nH]1
 : 1.3%, 0.8%
c1ccc2c(-n3ccnc3)nc(-c3ccoc3)nc2c1
 : -21.5%, u
CC/C(=C(/CC)c1ccc(OP(=O)(O)O)cc1)c1ccc(OP(=O)(O)O)cc1
 : -13.8%, 8.0%
COc1ccc(-c2cc(=O)c3c(O)c(OC)c(O[C@@H]4OC(COC5OC(C)C(O)C(O)[C@@H]5O)C(O)C(O)C4O)cc3o2)cc1 (stereo partly specified)
 : 5.7%, -6.7%
CN1CCCCC1c1ccc(-c2cccnc2)nc1 (stereo unspecified)
 : -1.2%&-9.3%, 29.7%&-8.2%
c1ccc2cc(C3=NCCN3)ccc2c1
 : -10.8%, u
c1ccc2c(c1)SCc1c-2[nH]c2ccccc12
 : u, 11.2µM*
CCOC(=O)C1(C)C(C(=O)OC)=C(c2ccc(OC)cc2)c2ccccc2N1C(=O)OC (stereo unspecified)
 : -5.9%, u
COc1cccc(CS(=O)(=O)c2nnnn2-c2ccccc2)c1
 : 0.5%, 2.8%
CCCCC/C=C\CCC(=O)N[C@H]1[C@H](Oc2c3cc4cc2Oc2ccc(cc2Cl)[C@@H](O[C@@H]2O[C@H](CO)[C@@H](O)[C@H](O)[C@H]2NC(C)=O)[C@@H]2NC(=O)[C@H](NC(=O)[C@@H]4NC(=O)[C@H]4NC(=O)[C@@H](Cc5ccc(c(Cl)c5)O3)NC(=O)[C@H](N)c3ccc(O)c(c3)Oc3cc(O)cc4c3)c3ccc(O)c(c3)-c3c(O[C@H]4O[C@H](CO)[C@@H](O)[C@H](O)[C@@H]4O)cc(O)cc3[C@@H](C(=O)O)NC2=O)O[C@H](CO)[C@@H](O)[C@@H]1O
 : -12.5%, u
C=CC(N)CCC(=O)O (stereo unspecified)
 : -9.4%&5.6%, -0.6%&9.1%
N[C@H](C(=O)O)c1nn[nH]n1
 : -15.7%, 7.5%
O=C(C=Cc1ccccc1)c1ccccc1O
 : u, 3.7%&5.8%[8.59 µM]
CCOc1ccc(N=C(C)Nc2ccc(OCC)cc2)cc1
 : -11.3%, 11.2µM*
CCS(=O)(=O)c1ccc(OC)c(Nc2ncc(-c3cccc(OC)c3)o2)c1
 : x, u

Results follow in this order: Lassa entry, Marburg entry
CC(C)C1C(=O)N(Cc2cn(CC3CCCCC3)nn2)CCS(=O)(=O)N1Cc1ccc(-c2ccc(F)nc2)cc1 (stereo unspecified)
 : 19.9µM*, u
COc1cc(CN2CCCC(c3nc(-c4ccncc4)ncc3-c3ccccc3)C2)ccc1O (stereo unspecified)
 : 12.5%, -23.2%
CCC1CN(CCNC(=O)c2ccnc(Cl)c2)Cc2cc(OC)ccc2O1 (stereo unspecified)
 : u, -5.3%
Cc1nc2sccn2c(=O)c1CCN1CCC(=C(c2ccc(F)cc2)c2ccc(F)cc2)CC1
 : 35.5µM*, u
Cn1c(=O)c2[nH]c(-c3ccc(S(=O)(=O)O)cc3)nc2n(C)c1=O
 : -18.0%, 13.9%
C=CCC(C)(O)c1cccs1 (stereo unspecified)
 : -4.6%, 0.2%
Cn1ccc2c(-c3ccc(F)cc3)cc3c(c21)C1CCC3C1 (stereo unspecified)
 : 8.9%, u
Cc1cc(OCc2cn(CC(=O)c3ccc(O)cc3)nn2)cc(C)c1C
 : u, 21.8%
COCC(=O)Nc1cc(C(=O)N2CCN(c3ccccc3)C(=O)C2)cc2nc(-c3ccccc3)n(C)c12
 : 2.5%, 1.0%
COCCN1C(=O)C2=C(C1=O)C1N(C)c3ccccc3[C@@]13C[C@@H](CO)N(C(=O)CCC(=O)OC)C3=N2 (stereo partly specified)
 : -11.5%[8.59 µM], 5.1%[8.59 µM]
CNC(C)Cc1ccc(OC)cc1 (stereo unspecified)
 : 6.3%, 10.0%
CCN1CCCC1CNC(=O)c1cnn(-c2nccc(-c3ccc(C)o3)n2)c1C1CC1 (stereo unspecified)
 : -20.6%, -26.7%
Cc1cccc(CNc2ccnc(-c3ccccc3CN(C)C)n2)c1
 : u, 11.2µM*
CC#CCC1(C(=O)OC)C(=O)NC[C@H]1c1ccccc1 (stereo partly specified)
 : -0.9%, -0.7%
Cc1cc(O)cc(O)c1C(=O)O
 : -0.4%, -1.6%
